Mtb H37Rv – M. tuberculosis H37Rv growth inhibitors, H37Rv strain (AID 1626); 0.95% of 220,000 active; M. tuberculosis H37Rv growth inhibition; higher % means a stronger effect; one-dose inhibition, % at 10 µM; IC50 in µM for titrated hits;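 active means confirmed in a dose series; inconclusive means inhibition above 80% but not taken into the dose series; inactive means below 80% or under 30% at every dose of the series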;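 further: bacteria incubated seven days before Alamar blue readout; 0% = bacteria only wells and 100% = bacteria with antibiotic wells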
Arbovirus inh – antivirals against arbovirus infection, primary screen, cell-based, full library, 10K replicate subset; arbovirus infection cell-based antiviral screen; inhibition, % at 10 µM; 0.37% of 200,000 active; AID 1251, 2008;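 active means inhibition from about 30%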;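 further: bluetongue infection of BSR cells; cell survival read as ATP light after 72 h; 0% = infected wells without compound and 100% = uninfected wells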
RecA splice inh – Mtb RecA intein splicing inhibitors, primary screen, biochemical, fluorescence, HTS; Protein RecA (Mycobacterium tuberculosis (strain ATCC 25618 / H37Rv)), P9WHJ3; cell-free RecA intein splicing; inhibition, %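 (about 9 µM by stock and volumes)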; 0.75% of 290,000 active; AID 2221, 2009; in the data active means inhibition above about 30%; inconclusive means no clear call, values can overlap the other calls;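 further: 0% = vehicle wells and 100% = reference inhibitor control wells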
Target sequence (P9WHJ3 whole entry, looked up, canonical isoform): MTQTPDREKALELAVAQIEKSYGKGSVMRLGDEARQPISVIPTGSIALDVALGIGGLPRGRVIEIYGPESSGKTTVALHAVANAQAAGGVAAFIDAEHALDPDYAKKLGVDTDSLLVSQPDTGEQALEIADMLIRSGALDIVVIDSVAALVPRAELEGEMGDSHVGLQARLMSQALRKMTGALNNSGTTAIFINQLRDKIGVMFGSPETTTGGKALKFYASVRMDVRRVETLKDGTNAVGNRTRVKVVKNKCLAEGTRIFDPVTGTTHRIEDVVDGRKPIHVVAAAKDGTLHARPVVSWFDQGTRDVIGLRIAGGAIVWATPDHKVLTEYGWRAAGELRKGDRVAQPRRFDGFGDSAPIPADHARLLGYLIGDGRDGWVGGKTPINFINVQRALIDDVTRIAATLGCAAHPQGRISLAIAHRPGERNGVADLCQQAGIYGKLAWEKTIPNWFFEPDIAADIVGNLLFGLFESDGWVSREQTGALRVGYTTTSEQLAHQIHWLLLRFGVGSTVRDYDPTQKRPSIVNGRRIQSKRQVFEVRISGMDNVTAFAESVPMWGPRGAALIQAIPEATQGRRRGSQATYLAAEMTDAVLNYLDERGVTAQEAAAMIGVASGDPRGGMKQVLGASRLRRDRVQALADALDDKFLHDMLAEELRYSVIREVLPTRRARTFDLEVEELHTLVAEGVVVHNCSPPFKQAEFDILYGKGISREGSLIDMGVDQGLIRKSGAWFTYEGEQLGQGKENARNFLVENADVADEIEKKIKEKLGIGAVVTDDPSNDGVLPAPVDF
Mtb betalactam – beta-lactam sensitization of Mtb H37Rv, H37Rv. inhibition, % at 25 µM. AID 434955, 2010. M. tuberculosis H37Rv growth with meropenem, percent inhibition; hits of this screen are not shown here. 0.27% of 330,000 active;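 active means about 74% or more and at least 40 points above the plate without the antibiotic, then above 30% in a dose series; inconclusive means first-round hits that could not be retested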;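 further: growth measured after seven days incubation then overnight dye step; 0% = bacteria only wells and 100% = bacteria with antibiotic; twin plates without the antibiotic show which effects depend on it; some results filed as inactive read as strong as hits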
YopH inh – YopH tyrosine phosphatase inhibitors, primary screen, biochemical, fluorescence Ex485/Em525. 0.16% of 140,000 active. inhibition, %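 (about 10 µM by stock and volumes)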. YopH tyrosine phosphatase [Yersinia enterocolitica];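 active means inhibition of 50% or more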;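 further: controls were vehicle for no effect and minimum signal wells for full effect; inactives centre near -20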
An asterisk follows results filed as active; ? = inconclusive; · = not tested or not shown.

Results follow in this order: Mtb H37Rv	Arbovirus inh	RecA splice inh	Mtb betalactam	YopH inh
O=C(Nc1cc(S(=O)(=O)N2CCCCCC2)ccc1OCC(F)(F)F)C1CCC1
 : ·	·	1.0	2	·
Fc1ccc(COc2cccc(CNCc3ccncc3)c2)cc1
 : 9%	3	2.5	-3	·
COc1ccc2c(C)cc(N3CCOCC3)nc2c1
 : -4%	-4	-2.1	-3	19
OCC1OC(n2cnc3c(NCCc4ccccc4)ncnc32)C(O)C1O (centres undefined)
 : -13%	·	-3.6	-5	·
O=C1c2ccccc2CN1CCNS(=O)(=O)c1ccc2ccccc2c1
 : 10%	11	1.3	-4	-9
CC(C)(C)Nc1c(-c2cccs2)nc2ccccn12
 : -3%	5	-11	1	·
Cc1cc(OCC(=O)N2CCOCC2)c(C(C)C)cc1Cl
 : -2%	4	0.6	-6	-26
C/C(=N\Nc1nnc(C)c(=O)[nH]1)C(=O)O
 : -7%	1	-1.3	-10	-38
COc1ccc(-c2noc(C(C)n3nc(C)c([N+](=O)[O-])c3C)n2)cc1OC (centres undefined)
 : -8%	-32	-2.9	0	6
CCCCN(CC)CCCNC(=O)CC1Nc2ccccc2NC1=O (centres undefined)
 : -11%	1	-0.5	-11	-24
O=C(Nc1ccccc1)N1CCCN(c2ccc(C(F)(F)F)cn2)CC1
 : 6%	·	0.5	-2	·
CCc1nn2c(=O)cc(COc3ccc(NC(=O)c4ccco4)cc3)nc2s1
 : ·	·	-0.6	2	·
COc1cc(C(=O)N/N=C/c2sc(N3CCOCC3)nc2-c2ccccc2)cc(OC)c1OC
 : 4%	1	-11	-11	·
COc1ccccc1/C=C/[C@@H]1C[C@H]2CN(Cc3cccc(Cl)c3)C(=O)[C@]23CCCN13
 : -8%	-2	5.2	2	·
Cc1ccc(C(=O)N2CCN(CCNC(=O)C(=O)NC(C)C)CC2)cc1
 : -2%	0	2.0	-8	·

The closing three records of the section before come first, to join the parts:
Results follow in this order: Mtb H37Rv	Arbovirus inh	RecA splice inh	Mtb betalactam	YopH inh
COc1cc(C(=O)N/N=C/c2sc(N3CCOCC3)nc2-c2ccccc2)cc(OC)c1OC
 : 4%	1	-11	-11	·
COc1ccccc1/C=C/[C@@H]1C[C@H]2CN(Cc3cccc(Cl)c3)C(=O)[C@]23CCCN13
 : -8%	-2	5.2	2	·
Cc1ccc(C(=O)N2CCN(CCNC(=O)C(=O)NC(C)C)CC2)cc1
 : -2%	0	2.0	-8	·
C#CCn1c(=NC(=O)c2cc(-c3cccs3)nc3ccccc23)sc2cc(S(N)(=O)=O)ccc21
 : 9%	-5	-3.8	2	-21
O=C(Nc1ccc(Br)cn1)c1ccc(Cl)s1
 : ·	·	2.1	4	·
S=C(c1cccs1)N1CCCC1
 : -6%	4	-0.5	6	-31
CCOc1ccccc1/C=C(\C#N)C(=O)NC1CC1
 : ·	·	1.3	-4	·
CSc1cc(C)c(OCC(=O)Nc2c(C)nn(C)c2C)c(C)c1
 : ·	·	-0.7	9	·
COc1ccc(-n2ncc3c2CC(C)(C)CC3NC(=O)CCCN2CCCC2=O)cc1 (centres undefined)
 : ·	·	3.0	-5	·
Cc1cc(C)cc(NC(=S)N2CCN(c3ccc(F)cc3)CC2)c1
 : 6%	13	-1.8	6	-30
Cc1ccc(C)c(NC(=S)N2CCN(CCO)CC2)c1
 : -3%	1	1.0	-1	-18
O=C(CSc1nc(-c2ccccc2)cc(=O)[nH]1)Nc1ccc(F)c(F)c1
 : ·	·	-1.5	-12	·
COc1ccccc1OCC(=O)NCc1ccco1
 : -3%	-4	2.8	0	-23
CCNC(=O)NC(=O)CN(C)c1ccccc1
 : -3%	15	-4.4	-10	·
COc1ccc(-c2noc(CNC(=O)c3ccoc3C)n2)cc1
 : ·	·	1.7	-6	·
Cc1ccc(NC(=O)C2CC(=O)N/C(=N/NC(=O)c3ccc(C)cc3)S2)cc1 (centres undefined)
 : 0%	-2	0.3	2	-17
CN(CC(=O)Nc1cccc(F)c1)C(=O)c1ccc(-c2cccc(C(F)(F)F)c2)o1
 : ·	·	0.2	-11	·
O=C1CCC(C(=O)O)N1 (centres undefined)
 : ·	·	-6.4	-8	·
COc1cccc(N2C(=O)C3CCCN3C2c2cccs2)c1 (centres undefined)
 : 1%	0	-0.4	-1	·
Cc1nc(CCNC(=O)CC2C(=O)NCCN2Cc2ccccc2)sc1C (centres undefined)
 : ·	·	1.5	?	·
COc1ccccc1N(C(=O)CCl)c1cn(C(C)=O)c2ccccc12
 : 43%	·	51*	96	·
Nc1nonc1-n1nnc(C(=O)N/N=C/c2ccc(Br)cc2)c1CSC1=NCCS1
 : 0%	19	31*	0	-28
COc1ccc(C(=O)C2CCCN(C(=O)c3cccnc3OC)C2)c(C)c1 (centres undefined)
 : -8%	4	-3.2	-1	·
CCc1nnc(NC(=O)CSc2nnc(CNc3cccc(Cl)c3)n2CC)s1
 : -6%	5	-1.0	-5	-12
COc1ccc(C(=O)NN2CC(O)=C(c3nc4ccccc4n3C)C2=N)cc1OC
 : -10%	-8	-1.6	-3	-28
O=C(O)CC1c2ccccc2C=Cc2ccccc21
 : ·	·	-2.8	-11	·
O=C(c1cc(-c2ccccc2)on1)N1CCc2ccccc2C1
 : -6%	-2	·	3	·
O=C(CCS(=O)(=O)c1ccc(Br)cc1)Nc1cc(F)ccc1F
 : 7%	5	0.6	0	-24
CCOC(=O)CSc1ccc(C(=O)N2CCC3(CC2)OCCO3)cc1[N+](=O)[O-]
 : ·	·	0.2	-2	·
CC(C)CC(=O)N1CCC(O)(CS(=O)(=O)Cc2ccccc2Cl)CC1
 : -2%	3	-0.1	-3	3
C=CCN1C(=O)C(Cc2ccc(SC(F)F)cc2)SC1=Nc1ccc(C(=O)O)cc1 (centres undefined)
 : 4%	5	1.7	0	·
O=C(CSc1ncn[nH]1)NCCOc1ccccc1
 : -2%	9	-2.1	-5	-33
Cc1ccc(C(C)(O)CS(=O)(=O)Cc2ccccc2Cl)cc1 (centres undefined)
 : ·	·	-3.6	9	·

Record cards (already shown).
COc1ccccc1OCC(=O)NCc1ccco1 is entered as Mtb H37Rv: -3%; Arbovirus inh: -4; RecA splice inh: 2.8; Mtb betalactam: 0; YopH inh: -23
O=C(CSc1ncn[nH]1)NCCOc1ccccc1 is entered as Mtb H37Rv: -2%; Arbovirus inh: 9; RecA splice inh: -2.1; Mtb betalactam: -5; YopH inh: -33

An excerpt of these results, as a markdown table:
| Structure | Mtb H37Rv | Arbovirus inh | RecA splice inh | Mtb betalactam | YopH inh |
| --- | --- | --- | --- | --- | --- |
| COc1cccc(N2C(=O)C3CCCN3C2c2cccs2)c1 (centres undefined) | 1% | 0 | -0.4 | -1 | · |
| CC(C)CC(=O)N1CCC(O)(CS(=O)(=O)Cc2ccccc2Cl)CC1 | -2% | 3 | -0.1 | -3 | 3 |

Continued.
Results follow in this order: Mtb H37Rv	Arbovirus inh	RecA splice inh	Mtb betalactam	YopH inh
COc1ccc(NC(=O)C(NC(=O)CC2NC(=O)NC2=O)c2ccccc2)cc1 (centres undefined)
 : 11%	-1	1.4	-3	-14
COc1ccccc1C(=O)N(NC(=O)Oc1ccccc1)C(C)(C)C
 : -4%	1	0.9	-6	-33
O=C1c2ccccc2C(=O)N1OCCOCCOCCBr
 : -3%	4	0.9	-3	-12
CN(C)CCN(C(=O)c1ccc(S(=O)(=O)N(C)c2ccccc2)cc1)c1nc2cc3c(cc2s1)OCCO3
 : 10%	·	-0.7	-3	·
COc1ccc(OCCOC(=O)c2ccc(-n3cnnn3)cc2)cc1
 : -1%	1	3.4	-3	-46
CC(C)CN1C(=O)CC(Sc2ccccc2C(=O)O)C1=O (centres undefined)
 : -9%	1	-6.2	-4	-10
Cc1ccccc1Oc1cc(-n2ncc(Cl)c(Cl)c2=O)ncn1
 : ?	-31	·	101	-33
CCOc1ccc(S(=O)(=O)N2CCOCC2)cc1NC(=O)CN1C(=O)NC(C)(c2ccccc2)C1=O (centres undefined)
 : ·	·	-6.1	-8	·
O=C(c1ccc(OC2CCN(Cc3ccc(F)cc3)CC2)cc1)N1CCCC1
 : ·	·	2.0	2	·
Cc1nn(C)c(C)c1CN(C(=O)CCc1nnc(Cc2c[nH]c3ccccc23)o1)C(C)C
 : -6%	3	-4.2	-1	·
Cc1cccc(NC(=S)N/N=C(\c2ccccc2)C(C)C)c1
 : 3%	0	10	91	·
Cc1ccc(/C=N/NC(=O)c2ccc(NC(=O)c3ccc(Cl)cc3)cc2)o1
 : ·	·	-3.0	2	·
O=C(COc1ccc(S(=O)(=O)N2CCOCC2)cc1)NCCN1CCOCC1
 : ·	·	-1.1	4	·
COc1ccc(/C=N/NC(=O)c2ccc(Cn3cc([N+](=O)[O-])cn3)o2)c(OC)c1C
 : ·	-9	-0.7	-5	-1
COC(=O)c1cc(C(=O)c2cc(F)ccc2O)cn2c(=O)c3c(C)c(C)sc3nc12
 : -12%	·	·	1	·
COc1ccc(Nc2nnc(SC(C(=O)Nc3ccc(OC)c(Cl)c3)c3ccccc3)s2)cc1 (centres undefined)
 : 74%	-13	0.1	1	-27
C=CCNC(=O)COc1coc(CN2CCN(Cc3ccccc3)CC2)cc1=O
 : ·	·	-3.1	9	·
O=C(O)c1ccc(CSc2nc3ccccc3o2)cc1
 : 0%	1	-0.4	7	-16
Cc1csc(C2=C(O)CN(c3ccc4c(c3)OCCOCCOCCOCCO4)C2=N)n1
 : 1%	2	·	·	-4
CCOc1ccc(CCNC(=O)CSCc2ccc(C)cc2)cc1OCC
 : 1%	-4	6.9	-4	-7
CCOc1ccc(NC(=O)NCCN2CCN(c3cccc(C)c3C)CC2)cc1
 : ·	·	0.4	9	·
CCn1c(=O)cc(OCC(=O)NCC2CCCO2)c2ccccc21 (centres undefined)
 : -1%	-3	-0.5	?	-18
CNCC(=O)N1CCN(c2ncc(C(F)(F)F)cc2Cl)CC1
 : 8%	6	-0.3	-2	·
O=C(COC(=O)c1cc(-c2ccco2)nc2ccccc12)NCc1ccccc1
 : ?	6	-2.1	-12	-26
C=CCNC(=O)Nc1ccc2oc(C)nc2c1
 : -6%	-2	-3.8	0	-19
CCOc1ccccc1CNC(=O)C1CCN(c2nnc(C)c3c(C)n(-c4ccc(C)cc4)nc23)CC1
 : ·	·	1.1	73	·
C/C(=N/NC(=O)CNC(=O)C(c1ccccc1)c1ccccc1)c1ccco1
 : 4%	·	-1.0	-10	·
O=C(CCc1nnc2ccc(NCc3ccccc3)nn12)N1CCC2(CC1)OCCO2
 : ·	·	-0.1	-6	·
CN(C)c1nc(OCCOC(=O)COc2ccc(Cl)cc2Cl)nc(N(C)C)n1
 : -8%	0	9.3	9	-11
CC1CC(C)CN(C(=O)CNS(=O)(=O)c2ccc(Br)s2)C1 (centres undefined)
 : -6%	-3	-2.7	-2	-11
CCOP(=O)(OCC)C(NC(=O)Nc1ccc(C)c(Cl)c1)c1ccccc1 (centres undefined)
 : -6%	-3	1.1	0	-27
N#Cc1ccccc1NC(=O)CSc1cn[nH]n1
 : ·	·	-0.8	-12	·
O=C(C1CCCO1)N(c1cccc(Cl)c1)C1C=CS(=O)(=O)C1 (centres undefined)
 : -8%	-1	2.1	0	-25
COc1ccccc1C(=O)NNC(=O)C(=O)NC(C)C
 : -3%	7	-0.5	31	·
Cc1ccccc1C(=O)Nc1ccccc1N1CCCCC1
 : 7%	-2	11	30	·
CCOC(=O)n1c(=O)oc2cc(S(=O)(=O)N3CCCCC3)ccc21
 : -1%	8	5.4	4	0
Cc1cc(CNC(=O)c2cc(COc3c(F)cccc3F)on2)nn1C
 : 2%	2	0.1	8	·
Cc1ccc(N)cc1NC(=O)CN1CCOCC1
 : ·	·	-1.6	-12	·
CC(=O)Nc1ccc(C(=O)NCCN2CCOCC2)cc1
 : ·	·	1.5	2	·

Screening data as filed in PubChem BioAssay.

This is a subset. The share of hits here may be higher or lower than overall.
